Source: PubChem (several laboratories)
eIF4H FP inh = inhibitors of RNA binding by human eIF4H; Q15056; eIF4H fluorescence polarization binding assay; inhibition, % at 35 µM; actives 0.94% (n = 290,000); AID 2012;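 active = 50% or more with normal probe brightness, or confirmed in later tests; about a fifth of its hits are not listed in these tables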;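 note: calls also rest on retests at 20 µM and on dose response follow-up; 0% = protein and probe with vehicle and 100% = probe without protein; strong numbers were not always called active; many hits fall short of the cut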
Yeast UUG start = alters start codon recognition fidelity in yeast | activity score, % at 18.7 µM | AID 602363 | S. cerevisiae UUG-firefly luciferase reporter, luminescence/redox ratio | actives 0.13% (n = 350,000);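 active = replicate mean at a twofold rise or more, about +100% in these data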;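 note: firefly luciferase made from a UUG start codon reports start codon fidelity; reporter light over untreated wells divided by growth signal over untreated wells; some hits fall short of that in this replicate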
Rce1 inhib = inhibitors of yeast Ras-converting enzyme. calls only. actives 0.27% (n = 290,000). Q03530. yeast membranes, quenched prenylated peptide cleavage fluorescence. AID 2563;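 active = fall in fluorescence gain of 50% or more versus controls, with final raw signal at or below 3038400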;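 note: plate controls were neutral control wells for no effect and wells lacking membranes for full effect; tested at 10 µM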
CSC inhib = cancer stem cell inhibition; AID 2717; inhibition, % at 7.5 µM; actives 1.1% (n = 300,000); cancer stem cell-like cells viability, luminescence;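 active = mean at 75% or more and at least half the replicates too; tested in HMLE shEcad cells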;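 note: 0% = median of negative and 100% = median of positive control wells; the first replicate is given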
PABP polyA inh = PABP-poly(A) binding inhibition; P11940; PABP-poly(A) RNA binding, fluorescence polarization; inhibition, % at 35 µM; actives 1% (n = 290,000); AID 2014;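 active = 50% or more with normal probe brightness, or confirmed in later tests; about a fifth of its hits are not listed in these tables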;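 note: calls also rest on retests at 20 µM and on dose response follow-up; controls were probe without protein and protein plus probe with vehicle; some compounds called inactive have numbers as strong as hits; many hits fall short of the cut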
Target sequence (P11940 whole entry, looked up): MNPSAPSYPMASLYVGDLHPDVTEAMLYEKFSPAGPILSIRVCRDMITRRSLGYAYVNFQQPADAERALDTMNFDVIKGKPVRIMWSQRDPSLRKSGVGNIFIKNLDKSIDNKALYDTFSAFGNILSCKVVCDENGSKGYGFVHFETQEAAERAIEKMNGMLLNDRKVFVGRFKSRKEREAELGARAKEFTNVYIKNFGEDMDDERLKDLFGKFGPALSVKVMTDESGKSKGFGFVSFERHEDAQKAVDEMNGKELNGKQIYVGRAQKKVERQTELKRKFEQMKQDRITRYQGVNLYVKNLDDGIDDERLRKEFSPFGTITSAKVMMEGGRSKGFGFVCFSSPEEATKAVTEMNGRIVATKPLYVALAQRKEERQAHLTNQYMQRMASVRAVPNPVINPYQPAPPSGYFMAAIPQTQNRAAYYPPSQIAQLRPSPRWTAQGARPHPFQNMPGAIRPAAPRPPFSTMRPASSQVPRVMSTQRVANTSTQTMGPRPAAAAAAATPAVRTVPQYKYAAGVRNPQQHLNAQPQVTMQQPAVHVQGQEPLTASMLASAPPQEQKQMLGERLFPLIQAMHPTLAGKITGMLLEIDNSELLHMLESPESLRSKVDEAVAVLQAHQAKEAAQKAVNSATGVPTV
MT1-MMP act inh = blocks activation of human MT1-MMP; P50281; HT1080 RFP-PRO-GFP cells, GFP/RFP ratio fluorescence, overnight; percent of plate control window, DMSO zero; GFP/RFP ratio change, % at 20 µM; actives 0.061% (n = 360,000);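 active = GFP/RFP ratio change of at least 30% with cell ATP level not reduced by more than half and red fluorescence within 50% of control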; note: strong numbers were not always called active
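Material – HT1080 RFP-PRO-GFP cells · Control set – DMSO wells and RFP-L50D-GFP cells · Incubation – overnight cell settling, then overnight compound exposure, 37 °C, 5% CO2 · Compound dosing – single-point 20 µM compound, 1% DMSO · Read-out – GFP/RFP fluorescence ratio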
HIV Env fusion = blocks HIV Env-driven cell-cell fusion | HeLa-JRFL Env/CEM21 cell fusion, luciferase | inhibition, % at 12.3 µM | actives 1.1% (n = 360,000) | AID 651610;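 active = mean replicate inhibition score of at least 50 and every replicate individually at or above 50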;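 note: 0% = plate neutral controls and 100% = maraviroc near 300 nM; one replicate is shown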
eIF4H FP inh retest = second read-out of eIF4H FP inh, no call of its own (marks repeat the call); inhibition, %; compound at 20 µM; confirmation average;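 mean of two retest wells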
PABP polyA inh retest = further read-out of PABP polyA inh, marked with its call; inhibition, %; compound at 20 µM; confirmation repeats;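 mean of two retest wells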
MT1-MMP act inh RFP = also measured in MT1-MMP act inh; calls as there; RFP signal change, %; measured here: RFP expression control read;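 0 = vehicle wells; hits needed this value within 50% of zero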
* hit, by the source's call; i = inactive; nt = no result given.

The first two records, to show the layout:
SMILES	eIF4H FP inh	Yeast UUG start	Rce1 inhib	CSC inhib	PABP polyA inh	MT1-MMP act inh	MT1-MMP act inh RFP	HIV Env fusion	others
CCOc1cc(CNn2cn[nH]c2=S)cc(Cl)c1OCc1ccccc1F	10	-7	i	8	2	-8	-10	16
Cc1ccc(C)c(NC(=O)COC(=O)Cn2c(C)csc2=O)c1	nt	-5	i	-5	nt	-3	2	0

The listing, from the first entry:
SMILES	eIF4H FP inh	Yeast UUG start	Rce1 inhib	CSC inhib	PABP polyA inh	MT1-MMP act inh	MT1-MMP act inh RFP	HIV Env fusion	others
CCOc1cc(CNn2cn[nH]c2=S)cc(Cl)c1OCc1ccccc1F	10	-7	i	8	2	-8	-10	16
Cc1ccc(C)c(NC(=O)COC(=O)Cn2c(C)csc2=O)c1	nt	-5	i	-5	nt	-3	2	0
C=CCN(Cc1ccc(Cl)s1)C(=O)c1cc(S(=O)(=O)N2CCOCC2)ccc1F	nt	-3	nt	nt	nt	3	-4	8
COc1ccc(-c2nc(-c3cccnc3)no2)cc1	-1	nt	i	nt	-13	-3	-6	-60
CC[n+]1cc(C)ccc1/C=C/c1ccc(N(C)C)cc1	67	11	i	2	-29	-70	25	37	eIF4H FP inh retest=-4;PABP polyA inh retest=-8
CC(=O)Nc1ccc2oc(C)nc2c1	8	nt	i	-8	8	2	1	-10
COc1ccc(/C=C(/NC(=O)c2ccco2)C(=O)N2CCCCCC2)cc1OC	-5	-9	i	3	-10	-1	-1	-13
CCOC(=O)c1cnc2c(OC)cccc2c1Nc1ccc2c(c1)OCCO2	-6	nt	i	5	-2	-7	-10	nt
Cc1c2n(c3ccccc13)CCC2=O	-14	-6	i	nt	2	-6	2	6
COc1ccccc1CNC(=O)COC(=O)c1ccc(C(=O)c2ccccc2)cc1	nt	-17	nt	-7	nt	3	5	-144
O=C1CC(N2CCN(c3ccccn3)CC2)C(=O)N1c1ccc(Cl)cc1 (stereo unspecified)	-16	nt	i	-13	0	5	1	22
COc1cc(CN(C(=S)NCC(=O)O)C2CCCC2)cc(OC)c1OC	-8	nt	i	-9	0	-2	2	-7
O=C(CC1C(=O)NCCN1CC1CCCCC1)NCc1cccc(F)c1F (stereo unspecified)	14	nt	i	-14	0	3	-2	-2
CCC(=O)N1CCN(CCN=CC2=C(O)CC(C)(C)CC2=O)CC1	-3	-7	i	-3	-2	7	5	-106
COc1ccc(C(=O)NNC(=O)CSc2nnc(-c3cccnc3)n2C)cc1	-9	nt	i	-14	3	-3	3	2
Cc1cccc(NC(=O)CSc2nnc(-c3ccco3)o2)c1	8	nt	i	6	-2	-1	8	nt
O=C(CCCCn1c(=O)c2ccccc2n(Cc2ccccc2F)c1=O)NC1CCN(Cc2ccccc2)CC1	-12	9	i	5	-8	2	-1	22
C/C(=N\NC(=O)c1ccc(CN2CCc3ccccc3C2)cc1)c1ccccc1O	0	nt	i	-4	-3	-3	-17	22
Cc1oc(CC(C)C)cc1C(=O)Nc1cccc2ccccc12	0	-9	i	80*	10	-1	-1	nt
O=C(CNC(=O)c1ccccc1F)N/N=C/c1cc(Br)ccc1OCc1ccccc1	-13	-6	i	2	-2	-2	-6	2
NC(Cc1ccc(Cl)cc1)c1csc(Nc2cc(Oc3ccccc3)ncn2)n1 (stereo unspecified)	nt	-8	nt	nt	nt	1	-2	-14
C(=N\Nc1nnnn1-c1ccccc1)/c1ccncc1	2	nt	i	nt	6	5	1	4
CCOc1ccc(C2=CS/C(=C(\C#N)c3nnc4n3CCCCC4)N2CC)cc1	7	-3	nt	4	17	-2	-3	nt
Cc1cccc(N2C(=O)C(Cl)=C(Nc3c(C)n(C)n(-c4ccccc4)c3=O)C2=O)c1C	-6	-39	i	-1	19	0	2	nt
N#C/C(=C\C1CC=CCC1)c1nc2ccccc2[nH]1 (stereo unspecified)	3	-12	i	-12	4	-21	-2	6

No new results follow: an excerpt of the list.
SMILES	eIF4H FP inh	Yeast UUG start	Rce1 inhib	CSC inhib	PABP polyA inh	MT1-MMP act inh	MT1-MMP act inh RFP	HIV Env fusion	others
CCOc1cc(CNn2cn[nH]c2=S)cc(Cl)c1OCc1ccccc1F	10	-7	i	8	2	-8	-10	16
Cc1ccc(C)c(NC(=O)COC(=O)Cn2c(C)csc2=O)c1	nt	-5	i	-5	nt	-3	2	0
C=CCN(Cc1ccc(Cl)s1)C(=O)c1cc(S(=O)(=O)N2CCOCC2)ccc1F	nt	-3	nt	nt	nt	3	-4	8
COc1ccc(-c2nc(-c3cccnc3)no2)cc1	-1	nt	i	nt	-13	-3	-6	-60

(listing goes on)
SMILES	eIF4H FP inh	Yeast UUG start	Rce1 inhib	CSC inhib	PABP polyA inh	MT1-MMP act inh	MT1-MMP act inh RFP	HIV Env fusion	others
CCC(=O)n1nc(-c2cccnc2)nc1NCc1cccs1	-15	-14	i	2	0	1	1	5
CC1(C)CC(=O)C2=C(C1)NC(SCC(=O)Nc1ccccc1)=C(C#N)C2c1ccco1 (stereo unspecified)	-9	8	i	-11	13	-10	-7	nt
CCN(CC)S(=O)(=O)c1cccc(C(=O)NC2=NCCS2)c1	-10	-3	i	-14	-6	-2	-3	-1
O=C(OCC(=O)N1CCCC1)c1ccccc1OCc1ccccc1	8	0	i	19	-4	2	1	nt
Cc1cccc(NC(=S)N/N=C/c2c[nH]c3ccccc23)c1	11	-35	i	79*	-4	6	-9	19
COc1ccc(C(=O)COC(=O)CNC(=O)C2CCCCC2)c(OC)c1	-1	3	i	-8	10	-2	4	nt
COc1ccc(S(=O)(=O)N(CC(C)C)CC(C)C)c2cccnc12	-4	-11	i	nt	3	-5	-6	12
COc1ccc(C(C)=O)cc1CSc1nnc(Nc2ccc(C)cc2)s1	7	-31	i	2	-10	-2	-17	5
Cc1cccc(N2CC(C(=O)Nc3nc4ccc(S(C)(=O)=O)cc4s3)CC2=O)c1C (stereo unspecified)	3	-3	i	-15	12	-8	-2	5
CC(OC(=O)Cc1cccc(C(F)(F)F)c1)C(=O)Nc1ccc(Cl)cn1 (stereo unspecified)	-10	-12	i	-9	-4	-2	1	nt
COc1cc(OC)cc(-c2c(-c3cccs3)c3cc(-c4ccc(OC)c(F)c4)ccc3n2C)c1	nt	-19	nt	3	nt	1	-2	16
Cc1cc(C(=O)N2CCCC(Nc3ccc(F)cc3)C2)c(C)o1 (stereo unspecified)	0	-18	i	-6	-12	1	2	0
COc1ccc(N2CCN(C(=O)CCN3C(=S)NC(C)(C)CC3C)CC2)cc1 (stereo unspecified)	6	-29	i	-10	-10	0	-2	12
Cc1ccc(C)c(S(=O)(=O)N2CCN(C(=O)c3cccn3C)CC2)c1	nt	44	i	-1	nt	0	2	0
Cc1cc(=O)c2ccc(C(F)(F)F)cc2[nH]1	-4	nt	i	-3	-1	-3	-5	5
CC(C)(C)OC(=O)NCCCC[C@@H](C(=O)N1CCN(C(=O)OC(C)(C)C)CC1)n1cc(C(CO)NC(=O)OC(C)(C)C)nn1 (stereo partly specified)	-3	5	i	-10	44	6	5	13
CCC(CO)Oc1cc(NC(=O)c2ccccc2Cl)c2ncn(C(C)C)c2c1 (stereo unspecified)	nt	-17	nt	-9	nt	1	4	-9
Cc1ccc(CN(C(=O)c2sc3ccccc3c2Cl)C2CCS(=O)(=O)C2)cc1 (stereo unspecified)	-9	-7	i	3	0	1	-7	-40
O=C(CSc1nccc(=O)[nH]1)Nc1cc(C(F)(F)F)ccc1N1CCOCC1	8	7	i	-6	4	-3	-5	-16
CN(C(=O)CSc1ccccc1C(=O)O)C1CCCCC1	1	nt	i	-12	27	3	-2	nt
CCCn1c(CN2CCN(C(=O)OCC)CC2)nc2cc(NC(C)=O)ccc21	8	-9	i	-6	0	2	3	6
Cc1ccc(NS(=O)(=O)N2CCOCC2)cc1	-7	-12	i	-14	-12	0	2	0
O=C(Nc1nnc(-c2cccs2)o1)c1cc(-c2ccccc2)nc2ccccc12	18	-35	i	49	4	4	0	28
CCCCN(Cc1ccc(C(=O)N[C@H](C(=O)O)C(C)C)cc1)C(=O)C(c1ccccc1)c1ccccc1	nt	-8	i	13	nt	-4	-6	7
Cc1ccc(N2C(N)=C(C#N)C(c3cc(CN4CCOCC4)cs3)C3=C2CC(C)(C)CC3=O)cc1 (stereo unspecified)	7	16	i	3	3	4	4	-20
Remaining list, next part.
SMILES	eIF4H FP inh	Yeast UUG start	Rce1 inhib	CSC inhib	PABP polyA inh	MT1-MMP act inh	MT1-MMP act inh RFP	HIV Env fusion	others
COc1cc(NC(=O)COC(=O)c2n[nH]c3ccccc23)c(C)cc1[N+](=O)[O-]	10	-33	i	-12	0	-7	-6	-3
CC(=O)C1=C(O)C(=O)N(CCCn2ccnc2)C1c1ccc(Cl)cc1 (stereo unspecified)	-1	nt	i	-2	5	-2	2	6
CCC(=O)N1CCc2cc(Br)cc(S(=O)(=O)CCC(=O)NCC3CCCO3)c21 (stereo unspecified)	-15	5	nt	-12	-3	8	6	1
Cc1ccc(NC(=O)COc2cccc(-n3cnnn3)c2)cc1S(=O)(=O)N1CCOCC1	nt	-32	nt	5	nt	3	-8	19
Cc1ccc(C(=O)NCCNS(=O)(=O)c2ccccc2)cn1	3	-6	i	-7	6	6	9	-13
CC(C)c1ccc(N(CC(=O)NC2CCCCC2)C(=O)CNC(=O)c2ccco2)cc1	-9	-10	i	-8	-11	-7	-1	29
Cc1[nH]nc(N=CC2=C(O)CC(c3ccco3)CC2=O)c1-c1ccc(Cl)cc1 (stereo unspecified)	-2	-13	i	-8	4	-5	-4	nt
Cc1noc(NS(=O)(=O)c2ccc(NC(=O)C(F)(F)F)cc2)c1C	3	-5	i	-4	-3	-1	-1	0
O=C(COC(=O)CNC(=O)c1ccc(Br)cc1)NCCC1=CCCCC1	9	nt	i	nt	6	3	2	2
CS(=O)(=O)N1CCCCC1CCN1CCCCC1 (stereo unspecified)	nt	-12	nt	nt	nt	-5	5	3
Clc1cccc(Cc2c(-c3cccc(Cl)c3)nc3ccc(Br)cn23)c1	nt	-16	nt	nt	nt	-3	-8	-5
CC(C)c1ccc(C(=O)NCCCN2CCOCC2)cc1	2	-6	i	7	11	0	2	9
COc1ccc(CNC(=O)CCNS(=O)(=O)c2ccc(C)cc2)cc1	-6	-7	i	2	-5	-2	0	-39

In the list so far, these have an aryl thioether with sulfur outside any ring:
SMILES	eIF4H FP inh	Yeast UUG start	Rce1 inhib	CSC inhib	PABP polyA inh	MT1-MMP act inh	MT1-MMP act inh RFP	HIV Env fusion	others
COc1ccc(C(=O)NNC(=O)CSc2nnc(-c3cccnc3)n2C)cc1	-9	nt	i	-14	3	-3	3	2
Cc1cccc(NC(=O)CSc2nnc(-c3ccco3)o2)c1	8	nt	i	6	-2	-1	8	nt
COc1ccc(C(C)=O)cc1CSc1nnc(Nc2ccc(C)cc2)s1	7	-31	i	2	-10	-2	-17	5
O=C(CSc1nccc(=O)[nH]1)Nc1cc(C(F)(F)F)ccc1N1CCOCC1	8	7	i	-6	4	-3	-5	-16
CN(C(=O)CSc1ccccc1C(=O)O)C1CCCCC1	1	nt	i	-12	27	3	-2	nt

3 compounds out of the list, arranged by SMILES length, descending.
SMILES	eIF4H FP inh	Yeast UUG start	Rce1 inhib	CSC inhib	PABP polyA inh	MT1-MMP act inh	MT1-MMP act inh RFP	HIV Env fusion	others
Cc1ccc(NC(=O)COc2cccc(-n3cnnn3)c2)cc1S(=O)(=O)N1CCOCC1	nt	-32	nt	5	nt	3	-8	19
Clc1cccc(Cc2c(-c3cccc(Cl)c3)nc3ccc(Br)cn23)c1	nt	-16	nt	nt	nt	-3	-8	-5
Cc1ccc(C(=O)NCCNS(=O)(=O)c2ccccc2)cn1	3	-6	i	-7	6	6	9	-13
